HCMV NEC inh = inhibitors of HCMV UL50-UL53 interaction, biochemical, HTRF. HCMV UL50-UL53 nuclear egress complex (human cytomegalovirus). normalized percent inhibition. inhibition, % (no concentration beside the values). actives 0.15% (n = 190,000). AID 1918969, 2023;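 active = both replicates at 50% or more, plus weaker picks with an unusually low signal ratio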;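 note: stock transfer was 100 nL into about 20 µL; 0% = negative control wells and 100% = wells with untagged competitor protein; inactives centre near -12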
GIV-Gai inh = inhibitors of GIV peptide binding to Galpha-i3, primary screen, biochemical, fluorescence polarization, FITC-GIV GBA peptide, rat Galphai3 | Guanine nucleotide-binding protein G(i) subunit alpha-3 (Rattus norvegicus), P08753 | 90 min; hits give low values; scaled: aluminum fluoride 0%, vehicle 100% | percent of control (FP), % (no concentration beside the values) | actives 0.42% (n = 210,000) | AID 1224905, 2016;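 active = replicate mean at 85% of control or lower, very high polarization wells dropped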;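 note: wells of about 15 µL received 100 nL stock; the first replicate is given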
Target sequence (P08753 whole entry, looked up): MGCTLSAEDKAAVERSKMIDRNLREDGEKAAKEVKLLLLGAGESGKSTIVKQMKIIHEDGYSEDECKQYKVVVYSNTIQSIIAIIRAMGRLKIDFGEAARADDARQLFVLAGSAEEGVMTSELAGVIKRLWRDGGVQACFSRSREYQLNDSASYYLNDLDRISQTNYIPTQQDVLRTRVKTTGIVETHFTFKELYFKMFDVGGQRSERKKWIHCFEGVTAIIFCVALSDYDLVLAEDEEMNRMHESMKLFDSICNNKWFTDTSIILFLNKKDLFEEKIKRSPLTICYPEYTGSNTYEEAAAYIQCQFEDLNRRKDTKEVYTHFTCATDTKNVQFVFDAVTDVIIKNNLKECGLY
Sa growth 42C = S. aureus growth inhibition at 42 and 30 °C, primary screen, LtaS inhibitor project, RN4220, two temperatures | OD600, 20 h, 42 °C; hits give low values | relative growth, % (test concentration not listed) | actives 0.53% (n = 170,000);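 active = growth at 42 °C up to 50% and 20 or more points under that at 30 °C, or under 10% at both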;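 note: 300 nL library stock went into each well; scaled to the means of positive and negative controls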
Sa growth 42C second temp = second read-out of Sa growth 42C, no call of its own (marks repeat the call); relative growth, %; measured here: growth at 30 °C;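 optical density after 20 h as mean of two plates; 100% = untreated growth and lower means inhibition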
Starred values were filed as active, the others as inactive; · = no result given; & = joins results of further samples.

Second line of a record – HCMV NEC inh	Sa growth 42C	GIV-Gai inh	Sa growth 42C second temp
> Cc1noc(C)c1CSc1nc2ccccc2c(=O)n1CC1CCCO1 (stereo not given)
→ 5.3	92.9	·	94.7
> CCN(Cc1ccccc1)C(=O)c1cc(-c2ccccc2)n[nH]1
→ ·	100.0	105.8	88.7
> CN(Cc1csc(Nc2ccccc2)n1)Cc1cccs1
→ -13.0	90.3	·	90.4
> COc1cc(/C=C2/SC(=S)N(c3cccc(C(F)(F)F)c3)C2=O)ccc1OCC(=O)O
→ -16.8	·	113.9	·
> Cc1cccc2cc3c(nc12)N(C(=O)NC1CCCCC1)CC3
→ -13.7	·	98.7	·
> CCC(C)OC(=O)COc1ccc2c(=O)c(Oc3cc(C)ccc3C)coc2c1 (stereo not given)
→ ·	104.2	101.9	88.5
> CC1CC(C)CN(C(=O)c2cc3ccc4cccnc4c3[nH]2)C1 (stereo not given)
→ -11.0	59.7	99.8	26.9
> Cc1csc2nc(COc3ccc(NC(=O)COc4ccc(F)cc4)cc3)cc(=O)n12
→ -24.5	105.1	95.3	86.5
> CCOc1ccc(-c2nc(SCC(=O)NC3CCCC3)c(-c3ccccc3)[nH]2)cc1OC
→ -7.3	105.4	103.9	66.1
> CC1=CC=CC2C(=O)/C(=C\c3sc(=S)[nH]c3O)C(=NCCCn3ccnc3)N=C12 (stereo not given)
→ -8.9	109.2	·	95.0
> COc1ccc(CCn2c(C)cc(C(=O)CSc3nnc(-c4cccnc4)n3C3CC3)c2C)cc1
→ -25.8	88.3	·	86.2
> C[C@H](NC(=O)c1ccco1)C(=O)Nc1cccc(-c2nnc3n2CCCCC3)c1
→ 2.7	98.6	·	94.0
> O=C(O)CCC(=O)Nc1ccccc1Oc1ccccc1
→ -2.4	95.7	99.1	87.7
> NC(=O)Cn1cnc2sc3c(c2c1=O)CCCC3
→ -14.0	98.6	94.9	111.0
> COc1ccc(NC(=O)c2ccc(CN3C(=O)CCn4nc(C)cc43)cc2)c(OC)c1
→ ·	99.6	104.9	86.4
> Cc1ccc(-c2nc(CNC(=O)NC3CCCCC3)c(C)o2)cc1
→ ·	91.6	107.7	91.5
> CCOC(=O)c1ccoc1CN1c2cccc3cccc(c23)S1(=O)=O
→ -0.3	143.5	·	94.8
> CC1CCCCN1C(=O)c1cc(-c2ccc(Br)cc2)on1 (stereo not given)
→ 7.3	94.3	104.2	90.7
> Cn1cc(C2CC(=O)N(c3ccc(O)cc3)C2=O)c2ccccc21 (stereo not given)
→ ·	96.0	101.6	78.3
> CC(=O)NCc1ccc(C(=O)Cn2nc(C(=O)O)c3ccccc3c2=O)o1
→ -18.4	94.3	·	87.0

7 of these compounds in another layout:
Molecule | HCMV NEC inh | Sa growth 42C | GIV-Gai inh | Sa growth 42C second temp
CN(Cc1csc(Nc2ccccc2)n1)Cc1cccs1 | -13.0 | 90.3 | · | 90.4
COc1cc(/C=C2/SC(=S)N(c3cccc(C(F)(F)F)c3)C2=O)ccc1OCC(=O)O | -16.8 | · | 113.9 | ·
Cc1cccc2cc3c(nc12)N(C(=O)NC1CCCCC1)CC3 | -13.7 | · | 98.7 | ·
CCC(C)OC(=O)COc1ccc2c(=O)c(Oc3cc(C)ccc3C)coc2c1 (stereo not given) | · | 104.2 | 101.9 | 88.5
CC1CC(C)CN(C(=O)c2cc3ccc4cccnc4c3[nH]2)C1 (stereo not given) | -11.0 | 59.7 | 99.8 | 26.9
Cc1csc2nc(COc3ccc(NC(=O)COc4ccc(F)cc4)cc3)cc(=O)n12 | -24.5 | 105.1 | 95.3 | 86.5
CCOc1ccc(-c2nc(SCC(=O)NC3CCCC3)c(-c3ccccc3)[nH]2)cc1OC | -7.3 | 105.4 | 103.9 | 66.1

The results go on.
Second line of a record – HCMV NEC inh	Sa growth 42C	GIV-Gai inh	Sa growth 42C second temp
> CCOC(=O)c1cnc2ccccc2c1NCCCO
→ 1.5	89.0	113.9	76.2
> COc1cccc(/C=N/n2c(-c3ccco3)nc3ccccc3c2=O)c1
→ -11.6	131.5	97.8	88.6
> Cn1cc(CCCC(=O)NCc2ccc(F)cc2)c2ccccc21
→ -29.9	111.3	102.6	99.8
> Cc1cccc(NC(=O)CSc2nnc3c4ccccc4n(C)c3n2)c1
→ -39.2	93.1	106.7	83.7
> COc1ccc(C(=O)Nc2ccc(OCc3cc(=O)n4ccsc4n3)cc2)cc1OC
→ -27.2	104.6	99.2	84.8
> Cc1cc(=O)[nH]c(SCc2nc(-c3cccs3)no2)n1
→ -7.6	95.3	107.6	85.5
> Cc1ccc(-n2ncc(C(=O)NCCc3ccsc3)c2C2CCN(C(=O)OC(C)(C)C)CC2)c(C)c1
→ ·	85.8	104.1	86.3
> Cc1nc(Nc2ccc(NS(=O)(=O)c3ccc(F)cc3)cc2)cc(N2CCCC2)n1
→ 19.5	·	104.7	·
> CCc1ccccc1NC(=O)Cn1cc(C(=O)c2ccncc2)c(=O)c2cc(C)ccc21
→ ·	114.3	107.9	88.6
> Cc1cc(C)c(NC(=O)Cn2nnc(-c3ccccc3)n2)c(C)c1
→ -1.9	88.3	107.8	90.1
> CC(C)NC(=O)CN1C(=O)COc2ccc(S(=O)(=O)N3CCCCCC3)cc21
→ -23.2	102.2	103.2	92.7
> COc1ccc(Nc2nnc(-c3ccc(C)c(S(=O)(=O)N4CCN(C)CC4)c3)c3ccccc23)cc1
→ -16.1	104.0	110.8	79.5
> S=c1sc2c(s1)SC1C(CC3C4C=CC(C4)C31)S2 (stereo not given)
→ -19.5	93.3	108.3	96.0
> Cc1ccccc1CS(=O)(=O)CC1Nc2ccc(C(=O)NCc3ccc(Cl)cc3)cc2NC1=O (stereo not given)
→ ·	85.3	135.5	90.2
> O=C(NCc1ccncc1)C1CC(=O)N(c2ccc(Cl)cc2)C1 (stereo not given)
→ ·	102.2	108.0	71.4
> COc1ccc(NC(=O)n2ncc3c(C)cccc32)cc1
→ -22.0	61.8	101.7	68.5
> CCN(CC)S(=O)(=O)c1ccc2c(c1)nc(CCC(=O)Oc1ccc3c(c1)OCO3)n2CC
→ -33.9	77.0	·	91.7
> CCc1ccccc1NC(=O)CC(C)S(=O)(=O)c1ccc2c(c1)NC(=O)CO2 (stereo not given)
→ ·	119.2	109.1	83.0
> CCOC(=O)c1cc(C#N)c(Sc2nnc(SC)s2)nc1C(F)(F)F
→ -9.0	102.0	98.0	24.2
> O=C(COc1cccc(Br)c1)NCC1CCCO1 (stereo not given)
→ -24.6	123.3	·	85.1
> O=C(O)CNC(=O)c1sc2ccccc2c1Cl
→ -65.5	70.5	95.7	85.7
> CCCN(CCC)C(=O)Cn1c(=O)n(CCC(=O)NCCc2ccccc2)c(=O)c2ccccc21
→ -8.1	94.8	102.4	91.8
> Cc1ccccc1NC(=O)C(Cc1ccccc1)N1Cc2ccccc2C1=O (stereo not given)
→ ·	110.7	105.5	100.1
> CC(C)NC(=O)c1ccc(N2CCCC2=O)cc1
→ ·	111.4	102.0	83.0
> CCCCSc1ncnc2sccc12
→ 3.7	92.1	·	98.8
> O=C(OCCOc1ccc(Cl)cc1)c1ccc(O)cc1O
→ -35.3	22.3	·	27.6
> O=C(N1CCN(Cc2ccc3c(c2)OCO3)CC1)N1c2ccccc2Sc2ccccc21
→ 5.4	98.8	98.5	90.2
> CCn1nc(C)c(CCN(C)C(=O)Nc2ccc(F)c(Cl)c2)c1C
→ -1.6	·	98.0	·
> O=C(c1ccc(Cl)cc1)n1nc(-c2cccnc2)nc1NCc1ccco1
→ 3.8	101.9	103.6	80.6
> CN1CCN(C(=O)c2ccccc2C(=O)O)CC1
→ 11.9	90.3	90.4	114.1
> S=c1[nH]nc(-c2sc3ccccc3c2Cl)n1CCN1CCOCC1
→ 9.1	88.0	·	95.2
> O=C(c1cnc2sc3c(n2c1=O)CCC3)N1CCCC1
→ -9.2	·	101.6	·
> C=CCc1c(C)nn(-c2nc(CC(=O)Nc3nc(C)cs3)cs2)c1C
→ 1.6	·	112.4	·
> COc1ccc(OC)c(Nc2nc3nonc3nc2Nc2cc(OC)ccc2OC)c1
→ 3.2	·	104.2	·
> COC(=O)c1c(NC(=O)c2ccc(Cl)c(Cl)c2)sc2c1CCCC2
→ -57.8	109.3	106.8	89.0
> CCOc1ccccc1NC(=O)c1nnn(-c2ccc3noc(-c4ccccc4)c3c2)c1C
→ -11.9	·	98.3	·
> Cc1ccc(CSc2nc(-c3ccc(C(C)(C)C)cc3)nc3cc(=O)[nH]n23)cc1
→ ·	115.7	104.6	102.8
> CC(C)(C)c1ccc(C(=O)N2CCc3cc4ccccc4nc32)cc1
→ -17.2	·	102.5	·
> Cc1ccccc1-c1nnn(CC(=O)N2c3ccccc3NC(=O)C2(C)C)n1
→ -1.1	93.0	·	79.4
> Cc1ccc(CNC(=O)c2ccc3nc(SCc4ccc(F)cc4)[nH]c3c2)cc1
→ -23.6	99.0	95.1	77.2
> COC(=O)c1ccc(COc2ccc(-c3nnn(CC(=O)NC(C)(C)C)n3)cc2)cc1
→ 0.7	93.7	91.8	95.6
> COc1ccc(-n2nc3cc(C)c(NC(=O)COc4cccc(C)c4)cc3n2)cc1
→ -36.7	98.3	109.9	90.1
> COc1ccc(NC(=O)CCS(=O)(=O)c2cc3c(cc2C)NC(=O)CO3)cc1
→ -14.5	·	109.4	·
> Cc1ccccc1NC(=O)N1CCn2cccc2C1C (stereo not given)
→ -3.6	·	103.4	·
> COc1ccc2c(c1)c(=O)oc1cc(OC(C)C(=O)O)ccc12 (stereo not given)
→ -14.8	107.3	102.0	89.2
> O=C(c1ccccc1Oc1ccccc1)N1CCN(c2ccccc2)CC1
→ 6.5	70.6	·	60.0
> COc1ccc(C2C(C#N)=C(O)NC(=O)C2[n+]2ccccc2)cc1OC (stereo not given)
→ 13.2	80.9	·	96.8
> O=C(CCS(=O)(=O)c1nc(-c2ccc3c(c2)OCO3)cc(C(F)(F)F)n1)Nc1ccc(F)c(Cl)c1
→ -29.7	93.3	103.3	85.4
> CN1CCN(C(=O)c2nc(-c3ccccc3)n(-c3cccc(Cl)c3)n2)CC1
→ -13.4	·	99.5	·
> COc1cccc(N2CCN(C(=O)Cn3c4ccccc4c(=O)c4cc(C)ccc43)CC2)c1
→ -17.7	·	102.2	·
> Cc1cc(NC(=O)c2cccs2)n(-c2ccccc2)n1
→ -30.3	78.4	·	75.1
> Cc1nc2c(c(Nc3ccc(C(=O)OCC(C)C)cc3)n1)CCC2
→ -11.2	·	102.2	·
> O=C(Cn1cc(S(=O)(=O)c2ccccc2)c(=O)c2cc3c(cc21)OCO3)Nc1ccc(Cl)cc1
→ -22.7	105.7	103.9	88.4
> O=C(O)c1cc2c(cc1NC(=O)C13CC4CC(CC(C4)C1)C3)OCCCO2
→ -7.9	169.4	·	97.2
> CCOc1ccc(C(=O)Nc2ccc3c(c2)CCCN3S(=O)(=O)c2ccccc2)cc1OCC
→ 3.2	·	106.7	·
> CCOC(=O)Cc1cc(=O)[nH]c(/N=C(\N)Nc2ccc3ccccc3c2)n1
→ 5.5	111.6	100.7	90.8
> CCCOc1ccc2c(c1)c(C(=O)N1CCOCC1)c(C)n2-c1ccc(OC)cc1
→ -17.9	·	102.2	·
> CCCCNC(=O)Cc1csc(-n2nc(C)cc2C)n1
→ -14.6	·	107.8	·
> Cc1ccccc1NC(=O)c1sc(N)c(C(N)=O)c1C
→ -13.5	80.4	99.7	69.5
> CCOC(=O)C1=C(N)OC2=C(C(=O)CC(c3ccccc3)C2)C1c1ccc(OCC)cc1 (stereo not given)
→ -19.2	·	103.2	·

Additional structures follow:
Second line of a record – HCMV NEC inh	Sa growth 42C	GIV-Gai inh	Sa growth 42C second temp
> CNC(=O)c1cc2c(cn1)[nH]c1ccccc12
→ -3.6&-33.2	·	101.3	·
> CCOc1cc(=O)oc2ccc(Cl)cc12
→ -9.5	85.5	·	84.4
> CCOC(=O)C1CCCN(c2nc3c(S(=O)(=O)c4ccc(Br)cc4)nnn3c3ccsc23)C1 (stereo not given)
→ ·	169.9	100.1	118.1
> O=C(CSc1ncnc2sc3c(c12)CCCC3)OC1CCCCC1
→ 5.4	108.3	·	90.7
> CC(=O)c1ccc(N2CCN(C(=O)CS(=O)(=O)c3cccc4nsnc34)CC2)cc1
→ ·	84.9	101.8	76.2
> CN(C)c1ccc(CNC(=O)CCS(=O)(=O)c2ccc3c(c2)oc(=O)n3C)cc1
→ ·	107.8	103.7	91.4

Screens as filed in PubChem.
